Assay outcomes: PubChem BioAssay, several laboratories
HSV augment – increases HSV replication in cells; HSV replication augmentation in cells, fold increase; maximum fold increase; actives 0.005% (n = 220,000); AID 1956;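 active = peak rise of 1.5-fold or more in the series; tested in PC3 cells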;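 also: first round at 10 µM; read as green reporter fluorescence; hits show the peak of a series up to 25 µM; 1 = signal of infected wells without compound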
PKD1 inh – blocks activity of human protein kinase D1; inhibition, %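 (about 10 µM by stock and volumes)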; PKD1 kinase fluorescence polarization assay; actives 0.056% (n = 200,000); AID 797; Q15139;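 active = inhibition of 50% or more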;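 also: controls were vehicle for no effect and a reference inhibitor for full effect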
GALR2 ag – GALR2 (human) receptor agonism; GALR2-expressing cells, agonist activation read-out; activation, %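 (tested at 5 µM)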; actives 0.48% (n = 140,000);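 active = above mean plus 3 SD of all compounds, about 5% in these data, not always enough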;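 also: 0% = vehicle buffer wells and 100% = reference agonist at full effect; tested in CHO reporter cells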
INS promoter inh – TRM-6 insulin promoter activity inhibition; TRM-6 cells (human fetal islet line), insulin promoter-eGFP reporter, imaging; reporter expression induced with tamoxifen; inhibition, % at 2 µM; actives 0.9% (n = 130,000); AID 1273;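 active = inhibition above the mean plus 3 SD, with well images judged a real hit on visual review, cut at about 60% in these data, passing the limit was not always enough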
RGS16-Gao – RGS16-Galphao interaction regulator (human); O15492+P09471; bead-based flow cytometry RGS16-Galphao binding, fluorescence; actives lie on both sides; binding response (% of control), % at 10 µM; actives 0.38% (n = 220,000); AID 1441;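 active = below 25% or above 175%, edge rows of some plates excepted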;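 also: Galphao activated by GDP with aluminum fluoride before binding; 100% = wells without compound and 0% = beads without RGS; some results beyond the cut were filed as inactive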
Target sequence (O15492 whole entry, looked up): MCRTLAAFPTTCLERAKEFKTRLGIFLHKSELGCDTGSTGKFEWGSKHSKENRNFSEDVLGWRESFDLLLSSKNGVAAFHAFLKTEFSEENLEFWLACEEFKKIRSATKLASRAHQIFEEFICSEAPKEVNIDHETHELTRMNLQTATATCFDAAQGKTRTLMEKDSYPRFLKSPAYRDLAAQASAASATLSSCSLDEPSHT
Target sequence (P09471 whole entry, looked up): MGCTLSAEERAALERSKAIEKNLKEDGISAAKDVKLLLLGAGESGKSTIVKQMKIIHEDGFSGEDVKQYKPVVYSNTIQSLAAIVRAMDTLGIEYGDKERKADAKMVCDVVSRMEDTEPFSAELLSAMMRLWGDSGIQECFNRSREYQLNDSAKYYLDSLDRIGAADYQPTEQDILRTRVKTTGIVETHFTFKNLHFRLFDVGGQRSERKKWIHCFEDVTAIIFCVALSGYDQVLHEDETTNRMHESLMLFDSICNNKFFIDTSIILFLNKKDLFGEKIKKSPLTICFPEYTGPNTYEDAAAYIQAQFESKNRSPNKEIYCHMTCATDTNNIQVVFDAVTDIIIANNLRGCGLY
INS promoter inh cell count – further read-out of INS promoter inh, marked with its call; normalized cell count, %; measured here: cell count, toxicity; reference of the scale not given here;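 cells exposed to compound for 48 h; stained nuclei by imaging scaled within each plate; lower means fewer cells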
HSV augment primary fold – also measured in HSV augment; calls as there; fold increase; compound at 10 µM; measured here: primary screen fold increase 10 uM; tested in PC3 cells;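 GFP signal in the first replicate; 1 = infected wells without compound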
Numbers without * were called inactive; i = inactive; · = not tested or not shown.

SMILES	HSV augment	HSV augment primary fold	PKD1 inh	GALR2 ag	INS promoter inh	INS promoter inh cell count	RGS16-Gao
CCN1CCN(C(=O)NC(c2ccc(C)c(F)c2)C(Cl)Cl)CC1 (stereo unspecified)	i	1.1	4	·	·	·	97
Cc1ccc(-c2cc(C(=O)N/N=C/C=C/c3ccccc3)n[nH]2)o1	i	0.87	-10	0.2	27	104	147
Cc1ccc(NC(=O)CN2C(=O)N/C(=C/c3cc(C)n(-c4ccc(C(=O)O)cc4)c3C)C2=O)cc1	i	0.98	-5	·	·	·	100
O=C1/C(=C/c2ccc(F)c(F)c2)CSc2sccc21	i	0.94	-2	-1.0	7	114	71
CCOc1ccc(N(C)S(=O)(=O)c2ccc(C)c(C(=O)OCC(=O)c3c[nH]c4ccccc34)c2)cc1	i	0.86	-3	·	5	88	100
Cc1cc(NS(=O)(=O)c2ccc(NC(=O)C(c3ccccc3)c3ccccc3)cc2)no1	i	0.97	-3	-0.7	-4	104	101
CCOC(=O)c1c(NC(=O)CCl)sc(CN(C)C)c1-c1ccccc1	i	0.93	-3	·	·	·	107
O=C(Nc1nnc(C23CC4CC(CC(C4)C2)C3)s1)c1ccc(N2C(=O)CCC2=O)cc1	i	0.77	-4	-2.2	·	·	99
OCC1(Cc2ccccc2)CCN(Cc2cnn(-c3ccccc3F)c2)CC1	i	1.3	-12	·	·	·	108
[O-]/C(=C(\C(=S)Nc1ccccc1F)[n+]1ccccc1)c1ccc(-c2ccccc2)cc1	i	0.98	0	·	·	·	94
Cc1noc(C)c1S(=O)(=O)N1CCC(C(=O)N2CCN(c3ccccc3Cl)CC2)CC1	i	1.1	4	-0.9	21	79	111
COc1cc(/C=N/n2c(-c3ccccc3)n[nH]c2=S)cc(OC)c1O	i	1.2	·	·	·	·	95

Next section; it opens with the three that closed the last part.
SMILES	HSV augment	HSV augment primary fold	PKD1 inh	GALR2 ag	INS promoter inh	INS promoter inh cell count	RGS16-Gao
[O-]/C(=C(\C(=S)Nc1ccccc1F)[n+]1ccccc1)c1ccc(-c2ccccc2)cc1	i	0.98	0	·	·	·	94
Cc1noc(C)c1S(=O)(=O)N1CCC(C(=O)N2CCN(c3ccccc3Cl)CC2)CC1	i	1.1	4	-0.9	21	79	111
COc1cc(/C=N/n2c(-c3ccccc3)n[nH]c2=S)cc(OC)c1O	i	1.2	·	·	·	·	95
CCOc1cc2c3c(c1)C(C)CC(C)(C)N3C(=O)C2=O (stereo unspecified)	i	1.1	-2	-0.9	3	137	97
CCc1nccn1S(=O)(=O)c1ccc(Br)cc1Br	i	0.96	-22	-1.1	·	·	105
Cn1cc(C(=O)NCc2ccccc2F)cn1	i	1	1	-1.1	-21	66	93
CCOC(=O)c1cc2c(nc1N)CC(C)(CC)OC2 (stereo unspecified)	i	0.8	-9	0.2	-10	58	97
Cc1ccc2[nH]c(C(=O)O)c(NC(=O)CN3CCN(c4cccc(C)c4C)CC3)c2c1	i	1.1	-2	-2.1	14	61	109
C=CCn1c(C#N)c(N)sc1=N	i	0.83	-14	-1.8	0	137	104
Cc1ccc(S(=O)(=O)n2ccc3cccnc32)cc1	i	0.9	3	0.4	-33	87	100
CCOCCCn1c(=S)[nH]c2cc3c(cc2c1=O)OCO3	·	·	-13	-0.9	-12	112	99
CCC(=O)Nc1sc2c(c1C#N)CC(C)(C)NC2(C)C	i	1	-4	-1.8	·	·	100
COCCn1c(SCCN2CCCCC2)nc2ccccc2c1=O	i	0.85	-10	0.4	·	·	100
Cc1nc2c(-c3ccc(F)cc3)c(C)nn2c(C)c1CCC(=O)N1CCN(c2ccc(F)cc2)CC1	i	0.83	3	-1.5	·	·	101
O=C1NC[C@H](Cc2ccc(O)cc2)N(CCc2cccc3ccccc23)C1=O	i	0.82	·	·	·	·	107
CCc1ccc(N(CC(=O)O)S(=O)(=O)c2c(C)noc2C)cc1	i	1.1	-13	-1.7	-50	125	103
CCO[C@@H]1OC(C(=O)NCc2ccccc2)=C[C@H](c2csc3ccccc23)[C@H]1CCCO	·	·	0	·	·	·	97
Cc1nccn1CC(=O)N/N=C/c1ccc(O)c(O)c1	i	1	9	-1.3	·	·	91
CN(C)S(=O)(=O)c1ccc(Cl)c(NC(=O)COC(=O)/C=C/c2ccco2)c1	i	1	1	·	·	·	96
Cn1c([N+](=O)[O-])cnc1COC(N)=O	i	1	0	-0.5	-5	89	97
OCc1cc(C(O)CNCCCCCCOCCCCc2ccccc2)ccc1O (stereo unspecified)	i	0.72	·	·	·	·	92
NC(=O)Cc1nc(-c2ccc([N+](=O)[O-])cc2)cs1	i	0.93	-9	·	·	·	99
CCN(CC(=O)NCc1ccccc1Cl)CC(=O)Nc1c(F)cccc1F	i	1.2	·	·	·	·	102
O=C1CCCN1CCCNS(=O)(=O)c1ccc(Cl)c(C(=O)N2CCOCC2)c1	i	1.1	0	-3.3	-5	109	99
COc1ccc(N2CCN(C(=O)CC3NC4CCCCC4NC3=O)CC2)cc1 (stereo unspecified)	i	0.73	-5	-0.9	·	·	103
O=C(OCC(=O)N1CCCC1)c1ccc(S(=O)(=O)N2CCOCC2)cc1	i	0.98	-4	·	·	·	102
O=C(Nc1cccn2ncnc12)c1ccc(Cl)cc1Cl	i	1.1	6	-1.9	-7	73	102

Brought forward from above: 6 entries; new compounds follow.
SMILES	HSV augment	HSV augment primary fold	PKD1 inh	GALR2 ag	INS promoter inh	INS promoter inh cell count	RGS16-Gao
NC(=O)Cc1nc(-c2ccc([N+](=O)[O-])cc2)cs1	i	0.93	-9	·	·	·	99
CCN(CC(=O)NCc1ccccc1Cl)CC(=O)Nc1c(F)cccc1F	i	1.2	·	·	·	·	102
O=C1CCCN1CCCNS(=O)(=O)c1ccc(Cl)c(C(=O)N2CCOCC2)c1	i	1.1	0	-3.3	-5	109	99
COc1ccc(N2CCN(C(=O)CC3NC4CCCCC4NC3=O)CC2)cc1 (stereo unspecified)	i	0.73	-5	-0.9	·	·	103
O=C(OCC(=O)N1CCCC1)c1ccc(S(=O)(=O)N2CCOCC2)cc1	i	0.98	-4	·	·	·	102
O=C(Nc1cccn2ncnc12)c1ccc(Cl)cc1Cl	i	1.1	6	-1.9	-7	73	102
O=C(CSc1nc2ccccc2s1)Nc1ccc(Cl)c(S(=O)(=O)N2CCOCC2)c1	i	0.89	-5	-0.8	·	·	96
COc1ccc(-c2nnc(SCCC(=O)O)n2-c2ccccc2)cc1	i	1.1	4	-2.6	-486	112	94
COc1ccc(-c2noc(-c3ccccc3-c3ccccc3)n2)cc1OC	·	·	5	-0.8	-8	115	80
CCC(c1nnnn1CCOC)N1CCN(C(=O)c2ccco2)CC1 (stereo unspecified)	i	0.94	12	-2.0	31	114	105
Cc1ccc2nc(C)cc(Cl)c2c1	i	0.86	2	·	18	158	116
CCSc1nnc(NC(=O)C(CC)Oc2ccccc2)s1 (stereo unspecified)	i	0.94	15	-0.5	-56	114	96
Cc1ccc(-n2ncc3c(N4CCCC4)ncnc32)c(C)c1	i	0.85	-3	-2.5	·	·	60
Cc1cc(C(=O)N/N=C/c2cc(Cl)cc([N+](=O)[O-])c2O)c2ccccc2n1	i	0.74	11	-1.6	20	60	96
CC(C)[C@H](NC(=O)c1ccccc1Cl)C(=O)OCc1cc(=O)n2cc(Br)ccc2n1	i	0.69	-8	·	·	·	96
COc1ccc(-n2c(SC3CCOC3=O)nc3ccccc32)cc1 (stereo unspecified)	i	0.98	-2	-0.8	·	·	95
COc1ccccc1-n1cc(CN2CCN(C3CCCCC3)C(CCO)C2)cn1 (stereo unspecified)	i	0.95	-9	·	·	·	100
COC(=O)c1ccccc1NC(=O)CN(Cc1ccc(Cl)cc1)S(C)(=O)=O	i	1.1	-6	-2.0	-27	103	157
COc1ccc(CCNC(=O)CN(C)S(=O)(=O)c2cccc3nsnc23)cc1OC	i	1	3	0.8	24	109	101
Cc1ccc(NC(=S)C2=C(O)c3sccc3N(C)S2(=O)=O)cc1	i	0.87	0	-1.6	9	112	103
Cc1ccc(Cn2c(/C=C/c3ccco3)nc3ccccc32)cc1	·	·	-4	-0.4	·	·	102
Cc1ccc(-n2[nH]c(C)c(/C=N/N3C(=O)c4cccc5cccc(c45)C3=O)c2=O)cc1	i	0.9	-3	·	·	·	110
COC(=O)C1=C(C)N=C2SCCC(=O)N2C1/C=C/c1ccccc1 (stereo unspecified)	i	1	-6	-0.4	·	·	103
C=CCN(CC=C)C(=O)Cn1cnc([N+](=O)[O-])n1	i	0.85	4	0.5	-14	98	104
Cc1cc(=O)oc2cc(OCC(=O)NCC3CCCO3)ccc12 (stereo unspecified)	i	1.1	-1	·	·	·	102
C#CCOCCOCCOCCNc1nc(N2CCN(C(=O)[C@H]([C@@H](C)CC)n3cc([C@@H](N)CC(C)C)nn3)CC2)nc(N2CCN(C(=O)[C@H](CCCCN)n3cc([C@@H](N)CC(C)C)nn3)CC2)n1	i	0.91	-10	·	·	·	101
COC(=O)c1ccc(CSc2nc(-c3ccc(OC)cc3)nc3c2c(=O)n(C)c(=O)n3C)o1	·	·	-14	-0.6	13	134	·
CC(Cc1cccs1)NC(=O)Nc1ccc([N+](=O)[O-])cc1 (stereo unspecified)	i	0.87	0	·	·	·	100
CCN(CC)C(=O)CSc1nnc(CCCCCNC(=O)OC(C)(C)C)o1	i	0.96	-7	-2.3	·	·	87
O=S1(=O)CCC(NC(=S)SCc2ccccc2Br)C1 (stereo unspecified)	i	0.93	-6	·	0	78	100
CC1CCCN(c2ccc(C(=O)NCc3cccs3)cn2)C1 (stereo unspecified)	i	0.91	-1	-2.2	28	76	105
CC1(C)CC(=O)C2=C(C1)OC(c1ccncc1)C(C#N)=C2N (stereo unspecified)	i	0.8	4	-0.8	19	75	87
CCOC(=O)c1sc(NC(=O)CSc2nc3c(c(=O)n2-c2ccc(F)cc2)SCC3)c(C(=O)OCC)c1C	i	0.9	-2	0.1	-12	71	115
CCN1CCN(C(=S)Nc2ccc3nc(N4CCN(C)CC4)cc(C)c3c2)CC1	i	0.7	-5	-0.8	41	131	106
CCOC(CNC(=O)c1ccc(N2CCc3ccccc32)c([N+](=O)[O-])c1)OCC	i	0.74	1	-2.0	-6	105	109
COc1ccccc1CNC(=O)C1CCC(CNc2c(N3CCC(C)CC3)c(=O)c2=O)CC1 (stereo unspecified)	i	0.89	·	·	·	·	97
O=C(NNC(=O)C12CC3CC(CC(C3)C1)C2)c1ccccn1	i	0.61	·	·	·	·	102
O=[N+]([O-])c1ccccc1S(=O)(=O)N1CCN(Cc2ccc3c(c2)OCO3)CC1	i	1	1	·	6	113	97
CCOc1ccc(N2C(=O)S/C(=C\c3cccn3C)C2=O)cc1	i	0.91	0	0.5	·	·	89
